gsp ag: qHTS for Agonist of gsp, the Etiologic Mutation Responsible for Fibrous Dysplasia/McCune-Albright Syndrome: qHTS; gsp mutant cells, cAMP HTRF, 30 min; control for the full effect not named in the record; Potency, µM (titrated, usually from 76.9 µM), for the others: top-dose activation (cAMP increase), most hits filed as activators; 0.13% of 340,000 active; active = well fitted activation curve with a large enough effect; inconclusive = small, poorly fitted or top-dose-only effect, or another doubt; inactive = no such curve, though single readings can be large or run the other way; cell line not stated here;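 also: phosphodiesterase inhibitor Ro 20-1724 added with compounds to block cAMP breakdown; potency is read from the fitted curve at half-maximal effect; nearly all actives have a fitted effect of over 60% in size; about a fifth of the inactives were tested at one dose only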
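Cells stably selected in G418 were plated at 2000/well, grown 16-24 hr, then given compounds in DMSO with the PDE inhibitor […] (300 uM solution added) for 30 min at 37C; cAMP was read by HTRF.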
TRPML1 blocker: qHTS for Inhibitors of the Human Mucolipin Transient Receptor Potential 1 (TRPML1). Mucolipin-1 (Homo sapiens), Q9GZU1. TRPML1-inducible cells, Ca2+ dye fluorescence, FDSS; stronger effect = lower value; inhibition of EC80 agonist-evoked calcium signal. activity change, negative = inhibition, % (concentration not given with the values). 0.02% of 390,000 active; in the data active means activity change below about -50%; inconclusive means about -30% to -50%; inactive means above about -30%;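 also: stimulus is agonist 54-4 at its EC80 concentration; % is scaled to controls: 0 for no effect and ±100 for the full control effect; compound concentration not given in the record; the text of the record puts the active cut at -80%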
Target sequence (Q9GZU1 whole entry, looked up): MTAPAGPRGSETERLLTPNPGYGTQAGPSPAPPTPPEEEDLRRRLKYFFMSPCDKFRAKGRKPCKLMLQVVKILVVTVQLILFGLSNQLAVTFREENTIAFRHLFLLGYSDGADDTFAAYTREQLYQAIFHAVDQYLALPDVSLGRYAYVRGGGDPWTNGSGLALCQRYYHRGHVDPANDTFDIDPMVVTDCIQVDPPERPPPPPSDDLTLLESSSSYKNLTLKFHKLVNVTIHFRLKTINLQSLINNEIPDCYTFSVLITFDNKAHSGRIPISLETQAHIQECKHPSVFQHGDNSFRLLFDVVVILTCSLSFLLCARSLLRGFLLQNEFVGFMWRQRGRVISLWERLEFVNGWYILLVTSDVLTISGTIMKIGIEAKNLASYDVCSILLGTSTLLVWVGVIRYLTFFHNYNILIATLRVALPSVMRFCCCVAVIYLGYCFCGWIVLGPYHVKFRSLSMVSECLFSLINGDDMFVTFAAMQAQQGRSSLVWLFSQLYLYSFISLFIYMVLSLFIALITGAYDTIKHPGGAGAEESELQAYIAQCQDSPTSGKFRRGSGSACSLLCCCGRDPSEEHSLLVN
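TRPML1-DL cells, Tet-induced overnight (~16 h, 37 °C) at 1,500 cells/well, were loaded with Ca8 no-wash dye plus quencher for 45-90 min at room temperature. Compounds were pinned during FDSS kinetic reading; agonist 54-4 at EC80 (4 uM final) then added.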
TRPML1 agonist: qHTS for Agonists of the Human Mucolipin Transient Receptor Potential 1 (TRPML1); TRPML1-expressing cells, Ca2+ dye fluorescence, FDSS; host cell line not named in the record; reference of the full effect not given here; AID 624414, 2012; activation, % (test concentration not listed); 0.12% of 410,000 active; in the data active = activation above about 50%; inconclusive = about 30% to 50%; inactive = below about 30%; also: 0% is about no effect; the text of the record puts the active cut at 80%
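Calcium fluorescence on an FDSS kinetic reader gave the read-out. Tet-induced TRPML1-DL cells were plated overnight, dye-loaded (Ca8 with quencher, 45-90 min, room temperature, dark), then read 110 s after compound addition, and again 110 s after 4uM final 54-4 (EC80).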
Menin MLL FP FL: qHTS Assay for Inhibitors Targeting the Menin-MLL Interaction in MLL Related Leukemias: Competition With Fluorescein Labeled MLL-derived Peptide; Fluorescence polarization, fluorescein-MLL peptide displacement from menin; FP activity change, % at 61.4 µM; 290,000 tested, under 10 active; inconclusive = falling polarisation curve, or a change in total fluorescence; inactive = total fluorescence flat and polarisation flat or rising; no compound was filed as active; the % refers to the polarisation; negative = inhibition;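 also: % of control where 0% means no effect; inhibitors lower the polarisation; unlabelled MLL peptide was the positive control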
gsp antag: qHTS for Antagonists of gsp, the Etiologic Mutation Responsible for Fibrous Dysplasia/McCune-Albright Syndrome: qHTS | gsp-mutant cells, cAMP HTRF, 30 min; control for the full effect not named in the record | Potency, µM (doses to about 76.9 µM), inactives show top-dose activity change, negative = inhibition, usual class: inhibitors | 0.4% of 340,000 active | AID 624288, 2012; active = falling curve of any shape with a large fitted effect; inconclusive = falling curve, mostly with a smaller effect; inactive = flat or rising curve; cell line not stated here;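 also: intracellular cAMP measured with PDE inhibitor Ro 20-1724 present during compound exposure; potency is read from the fitted curve at half-maximal effect; % is scaled to controls: 0 for no effect and ±100 for the full control effect; nearly all actives have a fitted effect of over 65% in size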
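Measurement of cellular cAMP by homogeneous time-resolved fluorescence following a 30 min compound exposure at 37C. The PDE inhibitor […] was present throughout; the assay buffer was DPBS with 0.05% BSA and 0.005% Tween 20.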
ClpP mod: qHTS Assay for Activators of ClpP. Potency, µM (highest dose often 57.5 µM), for inactives: at the highest dose activity change, negative = active. 1.9% of 340,000 active. ATP-dependent Clp protease proteolytic subunit (Bacillus subtilis (strain 168)), P80244. purified B. subtilis ClpP, FRET peptide cleavage, 20 min; active = well fitted falling curve with a large enough effect; inconclusive = small, poorly fitted or top-dose-only effect; inactive = no such curve, though single readings can be large or run the other way; also: potency is read from the fitted curve at half-maximal effect; the source files actives as falling curves though it sought activators and does not explain the sign; nearly all actives have a fitted effect of over 65% in size; many hits overshoot -100%
Target sequence (P80244 whole entry, looked up): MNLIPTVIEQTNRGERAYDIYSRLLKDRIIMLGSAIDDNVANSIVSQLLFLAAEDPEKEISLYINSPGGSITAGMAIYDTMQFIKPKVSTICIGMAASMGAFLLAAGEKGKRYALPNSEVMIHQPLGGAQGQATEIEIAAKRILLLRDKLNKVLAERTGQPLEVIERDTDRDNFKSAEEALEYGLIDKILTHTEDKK
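Purified B. subtilis ClpP, 10 microg/mL final in Tris/HCl pH8 with KCl, BSA, glycerol and Tween-20, cleaved an Abz/nitrotyrosine-quenched decapeptide. Fluorescence (ex 320, em 430) was read at 0 and 20 min at room temperature. Delta was normalized to 5.8 microM ADEP and DMSO/no-enzyme controls.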
Starred values were filed as active, the others as inactive; ? = inconclusive; . = not tested or not shown; [ ] = remark or other dose.

SMILES	gsp ag	TRPML1 blocker	TRPML1 agonist	Menin MLL FP FL	gsp antag	ClpP mod
CCOC(=O)CNC(=S)N(Cc1ccc(C)cc1)Cc1ccc(C)o1	-42%[inhibitor]	0	2.8	9.4	-1%	-4.2%
COc1cc(C(=O)N2CCN(Cc3ccc4c(c3)OCO4)CC2)c([N+](=O)[O-])cc1OC	1%	-6	0.6	-0.7	-4%	-4.8%
Cc1cccc(NC(=O)c2cc(NC(=O)C3CCCCC3C(=O)O)ccc2N2CCCCC2)c1 (stereo not drawn)	-38%[inhibitor]	38	1.1	4.2	35µM*	-5.1%
COc1ccc(-n2nc(C(=O)N3CCN(c4cccc(C)c4C)CC3)c3c4ccccc4n(C)c3c2=O)cc1	.	-25	1.0	.	.	-4.0%
CCOc1ccc(/C=c2\sc3nc(-c4ccco4)nn3c2=O)cc1OCC	?	1	-0.4	8.9	14%	0.1%
CCOC(=O)c1cccc(NC(=O)Cn2cnc3nc4c(cc3c2=O)CCCC4)c1	.	-20	-1.1	.	.	0.5%
CCN(CC)S(=O)(=O)c1cc(NS(=O)(=O)c2c(Cl)cccc2Cl)ccc1C	2%	-5	-0.2	2.0	6%	-2.2%
Cc1cc(F)ccc1C(O)c1ncc(-c2ccc(Cl)cc2)[nH]1 (stereo not drawn)	.	-6	-0.5	.	.	-0.9%
CNc1nc(-c2ccc3c(c2)CCN3C(=O)CC(C)(C)C)c(C)s1	5%	0	-0.5	-1.8	-6%	-2.8%
Cc1cc(C)nc(SCC(=O)c2ccc(F)cc2)n1	?	-13	-1.0	-2.7	5%	2.1%
COc1cccc(-c2nnc(SCC(=O)Nc3ccc4c(c3)OCCO4)n2Cc2ccco2)c1	-5%	4	3.6	0.4	7%	6.0%
Cc1cc2c(n1-c1ccc(C(=O)NCCc3ccccc3)cc1)CCC(C)C2 (stereo not drawn)	.	36	0.1	.	.	-8.4%
Cc1cc2c3ccccc3ncn2n1	?	10	-0.6	3.0	-2%	-0.4%
CC(=O)c1cccc(OCC(=O)NC2CCCCCC2)c1	-1%[15.4 µM]	3	-1.1	.	-19%	.
NS(=O)(=O)c1cc(C(=O)OCC(=O)Nc2ccc(N3CCCCC3)cc2)ccc1Cl	-9%	-14	0.3	15	-22%	0.2%

Reprinted from the part before: 3 entries, then new ones.
SMILES	gsp ag	TRPML1 blocker	TRPML1 agonist	Menin MLL FP FL	gsp antag	ClpP mod
Cc1cc2c3ccccc3ncn2n1	?	10	-0.6	3.0	-2%	-0.4%
CC(=O)c1cccc(OCC(=O)NC2CCCCCC2)c1	-1%[15.4 µM]	3	-1.1	.	-19%	.
NS(=O)(=O)c1cc(C(=O)OCC(=O)Nc2ccc(N3CCCCC3)cc2)ccc1Cl	-9%	-14	0.3	15	-22%	0.2%
COc1ccc(NC(=O)c2c(NCc3cccs3)sc3c2CCCCC3)cc1	.	-7	-0.4	.	.	-4.3%
CCOCCCNCc1ccc(Cl)cc1	-7%	10	1.5	-0.9	-21%	-2.5%
Cc1nn(CC(=O)OCC(=O)NC(C)c2ccccc2)c(C)c1[N+](=O)[O-] (stereo not drawn)	-17%	-1	0.4	-3.9	-10%	-3.0%
CN(C(=O)Nc1ccc(S(=O)(=O)N(C)C)cc1)C1CCCCC1	-3%	33	0.1	-0.4	-5%	1.3%
COC(=O)COc1ccc(/C=N/NC(=O)CN(c2ccccc2OC)S(=O)(=O)c2ccccc2)cc1	-25%	-10	0.2	0.8	-16%	.
CC(=O)Nc1ccc(S(=O)(=O)NCCC(=O)OCc2ccccc2F)cc1	-2%	1	0.1	.	-19%	0.4%
O=C(Nc1ccccc1C(=O)O)/C(=C/c1ccc([N+](=O)[O-])cc1)NC(=O)c1ccc(Br)o1	16%[15.4 µM]	-13	0.5	12	.	.
CC(C)N1CCN(S(=O)(=O)c2ccccc2)CC1	-29%	-6	0.4	1.9	10%	.
O=C(NNC(=O)c1cccc(C(F)(F)F)c1)c1ccncc1	10%[15.4 µM]	17	-0.6	2.8	10%	-5.1%
CCCCn1c(N)c(N(CC)C(=O)CSCC(=O)Nc2ccc(OC)cc2)c(=O)[nH]c1=O	?	-11	-0.4	.	1%	-3.6%
CC1OC(Oc2ccc3ccc(=O)oc3c2-c2c(O)ccc3cc(Oc4ccc5ccc(=O)oc5c4)c(=O)oc23)C(O)C(O)C1O (stereo not drawn)	.	-22	-0.4	0.5	-5%	-19%
Cc1ccc(CS(=O)(=O)Cc2ccc(C(=O)NCc3cccs3)o2)cc1	?	-3	0.9	1.7	-5%	0.0%
CCC(CO)Oc1cc(NCc2ccccc2C(F)(F)F)c2ncn(C(C)C)c2c1 (stereo not drawn)	.	14	-0.1	.	1%	-2.6%
Cc1ccc(S(=O)(=O)N2CCC(C)CC2)cc1	-58%[inhibitor]	-7	0.3	-4.4	-9%	0.4%
CC(O)c1ccc2c(c1)OCCOCCN(C)CCOCCO2 (stereo not drawn)	12%	-1	-1.1	2.1	3%	-3.4%
COC(=O)c1nc[nH]c1[N+](=O)[O-]	1%	-10	-1.1	.	16%	.
COCCNC(=O)CSc1ccc(Cl)cc1	-7%[15.4 µM]	-5	-0.7	0.2	5%	.
Cc1cc(Cl)ccc1Oc1nccc(N(C)C)c1C#N	-36%[inhibitor]	27	-0.2	0.8	?	0.5%
C#CCOCCOCCOCCNc1nc(N2CCN(C(=O)C([C@@H](C)CC)n3cc(C(N)Cc4ccc(O)cc4)nn3)CC2)nc(N2CCN(C(=O)[C@H](CCC(=O)O)n3cc(C(N)CC(C)C)nn3)CC2)n1 (stereo partly drawn)	3%	5	-0.5	-2.2	7%	2.3%
COCCn1c(N)c(C(=O)NS(=O)(=O)c2ccc(C)cc2)c(=O)[nH]c1=O	-3%[15.4 µM]	17	0.0	0.4	0%	.
COc1cc(C2C3=C(CCCC3=O)Nc3[nH]n(-c4ccccc4)c(=O)c32)ccc1OC(C)=O (stereo not drawn)	-37%[inhibitor]	-2	-0.2	-1.9	-6%	.
COc1ccc(C(=O)Nn2c(C)nc3ccccc3c2=O)cc1	-18%	-20	0.4	-0.4	2%	1.2%
CCCCN(CC)CCNC(=O)c1cc2c(=O)n(C)c3ccccc3c2n1C	-68%[inhibitor]	10	0.1	-2.2	0%	4.6%
CC(C)CCn1c(=O)c2cccnc2n(CC(=O)Nc2ccc(F)cc2)c1=O	.	3	0.0	.	.	-3.0%
COc1ccc(-c2cc(C(F)(F)F)n3ncc(C(=O)N(C)Cc4ccccc4)c3n2)cc1	-1%	-4	1.5	-1.4	-32%	.
O=C1[C@@H]2CSC(c3ccc(F)cc3)N2C(=O)N1c1ccc(Cl)cc1 (stereo partly drawn)	.	10	3.4	.	.	-0.1%
CC(C)C(C(=O)Nc1sc2c(c1C#N)CCCCC2)N1C(=O)c2ccccc2C1=O (stereo not drawn)	-64%[inhibitor]	34	0.6	-3.5	-27%	-21%
COc1ccc(C(=O)NCc2ccc3c(c2)cc(C)n3C)cc1OC	-1%	16	0.0	?	-1%	-0.6%
CCCCN1CC(=O)N2[C@H](c3ccc(OC)cc3)[C@@H]3C(=O)N(CC)C(=O)[C@@H]3[C@]2(Cc2ccccc2)C1=O	.	2	-0.5	-1.0	-6%	-1.0%
COCCn1c(SCC(=O)Nc2ccc(C(C)=O)cc2)nc2c([nH]c3ccccc32)c1=O	-10%[15.4 µM]	8	0.6	.	0%	1.0%
CCOC(=O)C1(CCOc2ccccc2)CCN(Cc2ccc(OCCO)cc2)CC1	15%[15.4 µM]	13	1.2	-2.3	-11%	-0.9%
CC1CCCc2sc3ncn(N)c(=N)c3c21 (stereo not drawn)	0%[15.4 µM]	16	1.1	3.9	0%	.
Cc1ncc([N+](=O)[O-])n1CCOC(=O)NC(Nc1ccc(F)cc1)C(Cl)(Cl)Cl (stereo not drawn)	-4%	12	0.2	-0.7	2%	-0.3%
CCc1ccccc1N/N=C(/C)c1c(O)cc(C)oc1=O	2%[15.4 µM]	19	-1.2	-0.5	7%	0.3%
O=C(Nc1ccccc1)c1ccc(Br)c(S(=O)(=O)Nc2cccnc2)c1	-20%	5	0.1	.	2%	-5.7%
CCOC(=O)CNC(=O)Cn1cnc2c(nnn2-c2cccc(Cl)c2)c1=O	?	5	1.0	1.5	18%	-0.1%
O=C(Cc1nnc(NC(=O)Nc2ccc(F)cc2)s1)Nc1ccccc1	-31%[inhibitor]	-3	0.0	-2.4	16%	0.0%
CCOC(=O)/C=C/C(=O)Nc1ccc(S(=O)(=O)N2CCCCCC2)cc1	0%[15.4 µM]	-12	0.0	4.4	-39%	0.2%
O=C(NC1CC1)C1=C[C@H](c2ccc(C(F)(F)F)cc2)C[C@H](OCc2ccc(CO)cc2)O1	-4%	-7	0.9	3.5	-8%	1.5%
Cc1c(Cl)cccc1-n1c(SCC(=O)N(C)Cc2ccccc2)nnc1-c1ccncc1	-12%	13	-0.6	6.0	-28%	-3.3%
COc1ccc(C)cc1S(=O)(=O)NCC(c1cccnc1)N1CCc2ccccc2C1 (stereo not drawn)	?	6	0.3	0.4	-1%	-0.5%
O=C(CN(Cc1ccc(F)cc1)C(=O)CCC(=O)Nc1ccccn1)NCc1ccco1	0%	-1	1.1	4.8	7%	-0.6%
COc1cc(/C=C(/C#N)c2ccc(F)cc2)ccc1OCc1ccc(C(=O)O)o1	6%	6	0.9	3.9	40µM*	-1.0%
CC(C)CC(=O)c1c[nH]c(C(=O)NCc2ccccc2)c1	-8%[15.4 µM]	-17	-1.6	1.1	13%	-0.1%
Cc1ccc(-n2c(=O)c3cccnc3n2CC(=O)NCc2ccc(Cl)cc2)cc1	.	7	0.9	.	.	3.8%
O=C(CCC(=O)Nc1nnc(C2CCCCC2)s1)NCc1ccccc1	17%	-27	0.3	0.6	2%	0.7%

Not a hit list; 2.1% or so of the library scored in one or more.
